# gsp ag: gsp mutant agonism; Potency, µM (titrated, usually from 76.9 µM), inactives show at the top dose activation (cAMP increase), most hits filed as activators; gsp mutant cells, cAMP HTRF, 30 min; control for the full effect not named in the record; AID 624287; hit rate 0.13% among 340,000; active = well fitted activation curve with a large enough effect; inconclusive = small, poorly fitted or top-dose-only effect, or another doubt; inactive = no such curve, though single readings can be large or run the other way; cell line not stated here;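 also: phosphodiesterase inhibitor Ro 20-1724 added with compounds to block cAMP breakdown; potency is read from the fitted curve at half-maximal effect; nearly all actives have a fitted effect of over 60% in size; about a fifth of the inactives were tested at one dose only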
#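 Cells in DMEM/10% FBS with G418 were pretreated with compounds in DMSO plus […] (300 uM stock) for 30 min at 37C. cAMP was measured by HTRF (cAMP-d2 plus anti-cAMP antibody-K) after 30 min at room temperature.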
# gsp antag: gsp mutant antagonism. gsp-mutant cells, cAMP HTRF, 30 min; control for the full effect not named in the record. Potency, µM (highest dose often 76.9 µM), inactives show at the top dose activity change, negative = inhibition, hits mostly inhibitors. hit rate 0.4% among 340,000; active = falling curve of any shape with a large fitted effect; inconclusive = falling curve, mostly with a smaller effect; inactive = flat or rising curve; cell line not stated here;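 also: intracellular cAMP measured with PDE inhibitor Ro 20-1724 present during compound exposure; potency is read from the fitted curve at half-maximal effect; % is scaled to controls: 0 for no effect and ±100 for the full control effect; nearly all actives have a fitted effect of over 65% in size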
#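 Cells, 2000/well, grown 16–24 h in DMEM 10% FBS with 0.5 mg/ml G418, then compounds plus […] (300 uM addition stock), 30 min at 37C. cAMP read by HTRF (cAMP-d2 and anti-cAMP antibody-K in lysis buffer) after 30 min RT.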
# TRPML1 blocker: blocks the human TRPML1 channel; Q9GZU1; hit rate 0.02% among 390,000; TRPML1-inducible cells, Ca2+ dye fluorescence, FDSS; hits give low values; inhibition of EC80 agonist-evoked calcium signal; activity change, negative = inhibition, % (test concentration not listed); in the data active means activity change below about -50%; inconclusive means about -30% to -50%; inactive means above about -30%;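 also: stimulus is agonist 54-4 at its EC80 concentration; % is scaled to controls: 0 for no effect and ±100 for the full control effect; compound concentration not given in the record; the text of the record puts the active cut at -80%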
#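 Calcium fluorescence in TRPML1-DL cells induced overnight with Tet: a 110 s read after compound pin addition, then a 110 s antagonist read after challenge with 54-4 at 4 uM final (EC80).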
# Sfp inh: Sfp phosphopantetheinyl transferase inhibition | Q9F4F7 | AID 1490 | hit rate 3.5% among 310,000 | Biochemical Sfp PPTase activity, qHTS | Potency, µM, without a hit: max response, negative = inhibition, hits mostly inhibitors; active = well fitted inhibition curve with a large enough effect; inconclusive = small, poorly fitted or top-dose-only effect, or another doubt; inactive = no such curve, though single readings can be large or run the other way;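 also: the enzyme is Sfp with the accession as filed and its product quenches rhodamine fluorescence; potency is read from the fitted curve at half-maximal effect; 0% = enzyme reaction without inhibitor and -100% = no enzyme wells; top concentration of the series not given in the record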
#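 Buffer: 50 mM Hepes-Na pH 7.6, 10 mM MgCl2, 0.01% Nonidet P-40, 0.01% BSA. Enzyme 15 nM, pre-exposed to compound 15 min; substrates then added and fluorescence change tracked over 30 min.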
# Menin-MLL FL inh: displaces fluorescein MLL peptide from human menin; Fluorescence polarization, fluorescein-MLL peptide displacement from menin; AID 1766; 290,000 tested, under 10 active; FP activity change, % at 61.4 µM; inconclusive = falling polarisation curve, or a change in total fluorescence; inactive = total fluorescence flat and polarisation flat or rising; no compound was filed as active; the % refers to the polarisation; negative = inhibition;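 also: % of control where 0% means no effect; inhibitors lower the polarisation; unlabelled MLL peptide was the positive control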
# ClpP mod: qHTS Assay for Activators of ClpP | ATP-dependent Clp protease proteolytic subunit (Bacillus subtilis (strain 168)), P80244 | purified B. subtilis ClpP, FRET peptide cleavage, 20 min | Potency, µM (titrated, usually from 57.5 µM), for the others: at the highest dose activity change, negative = active | hit rate 1.9% among 340,000 | AID 651965, 2013; active = well fitted falling curve with a large enough effect; inconclusive = small, poorly fitted or top-dose-only effect; inactive = no such curve, though single readings can be large or run the other way; also: potency is read from the fitted curve at half-maximal effect; the source files actives as falling curves though it sought activators and does not explain the sign; nearly all actives have a fitted effect of over 65% in size; many hits overshoot -100%
# Target sequence (P80244 whole entry, looked up): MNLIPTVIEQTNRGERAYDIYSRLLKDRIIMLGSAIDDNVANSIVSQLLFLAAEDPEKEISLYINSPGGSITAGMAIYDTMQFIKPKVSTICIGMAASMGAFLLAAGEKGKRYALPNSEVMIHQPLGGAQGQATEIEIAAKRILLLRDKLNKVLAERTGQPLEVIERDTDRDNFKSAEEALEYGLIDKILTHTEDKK
#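 Buffer: 100 mM Tris/HCl pH8, 100 mM KCl, 0.05% low protease BSA, 2.5% glycerol, 0.01% Tween-20. ClpP 10 microg/mL final; 20 min RT; delta FRET normalized to ADEP and DMSO controls.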
# TRPV1 potentiator: enhances activation of the human vanilloid receptor TRPV1; Q8NER1; TRPV1-expressing cells, Fluo-8 calcium influx, capsaicin EC20 potentiation; host cell line not named in the record; control for the full effect not named in the record; potentiation, % at 8.33 µM; hit rate 0.02% among 320,000; active means potentiation above 80%; inconclusive means 30% to 80%; inactive means below 30%; also: 0% is about no effect
# Target sequence (Q8NER1 whole entry, looked up): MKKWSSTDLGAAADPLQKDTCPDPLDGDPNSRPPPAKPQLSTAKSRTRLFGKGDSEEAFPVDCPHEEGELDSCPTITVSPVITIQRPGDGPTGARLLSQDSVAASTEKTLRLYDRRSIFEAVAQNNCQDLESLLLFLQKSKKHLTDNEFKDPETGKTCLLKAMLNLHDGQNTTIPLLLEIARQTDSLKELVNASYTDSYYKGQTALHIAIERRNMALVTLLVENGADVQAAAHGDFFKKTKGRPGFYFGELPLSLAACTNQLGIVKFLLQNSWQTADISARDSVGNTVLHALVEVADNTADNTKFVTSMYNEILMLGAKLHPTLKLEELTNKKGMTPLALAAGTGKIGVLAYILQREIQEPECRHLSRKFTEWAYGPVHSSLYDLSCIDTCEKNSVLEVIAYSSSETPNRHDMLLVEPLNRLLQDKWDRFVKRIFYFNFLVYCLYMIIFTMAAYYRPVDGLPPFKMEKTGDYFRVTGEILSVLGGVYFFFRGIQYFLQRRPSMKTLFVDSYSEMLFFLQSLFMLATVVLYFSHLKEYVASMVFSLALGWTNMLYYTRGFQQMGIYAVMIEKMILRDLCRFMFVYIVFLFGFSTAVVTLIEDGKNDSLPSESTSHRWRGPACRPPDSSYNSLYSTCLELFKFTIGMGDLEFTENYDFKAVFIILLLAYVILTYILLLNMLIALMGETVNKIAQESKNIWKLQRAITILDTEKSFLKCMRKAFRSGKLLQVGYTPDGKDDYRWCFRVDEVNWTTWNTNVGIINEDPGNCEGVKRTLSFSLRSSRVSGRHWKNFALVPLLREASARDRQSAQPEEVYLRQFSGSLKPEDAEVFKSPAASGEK
#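 Cells expressing TRPV1 were dye-loaded with Fluo-8 and read kinetically: 10 s baseline, 3 min after compound (agonist portion), then 2 min after EC20 capsaicin (allosteric enhancer portion). Calcium-bound dye fluorescence at 480/520 nm.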
# * hit, by the source's call; ? = inconclusive; . = not tested or not shown; & = joins results of further samples; [ ] = dose if it differs, or a comment. Hits appear at their usual frequency; 4.9% or so of the library scored in one or more.
SMILES,gsp ag,gsp antag,TRPML1 blocker,Sfp inh,Menin-MLL FL inh,ClpP mod,TRPV1 potentiator
COc1ccc(C(=O)N/C(=C\c2ccccc2)C(=O)NCCCn2ccnc2)cc1,-9%[15.4 µM],16%,5,1%,-7.1,.,3
CC(C)(C)NC(=O)NC(=O)COC(=O)Cn1cnc2ccccc2c1=O,20%,-6%,3,20%,-0.1,0.9%,?
Cc1cc(C)nc(SCC(=O)c2ccc(F)cc2F)n1,12%,10%,-10,7%,1.7,-0.9%,0
COc1ccc(NC(=O)C(CCCCNC(=O)OC(C)(C)C)NC(=O)OCc2ccccc2)cc1 (stereo not given),?,7%,-8,4%,2.2,-0.1%,-8
CCOc1cc(/C=C2\COc3ccccc3C2=O)cc(Br)c1OCC(=O)N(C)C,-10%[15.4 µM],-15%,12,50µM*,12,.,1
Cc1ccc(-c2nnc(SCc3ccccc3F)o2)cc1,8%,-5%,-14,-20%,-0.2,-5.2%,-14
Cc1cc(OCC(=O)NCc2cccnc2)ccc1[N+](=O)[O-],7%[15.4 µM],5%,15,-1%,-0.6,-1.7%,-10
CNc1ncc(C(=O)c2ccccc2)s1,4%,-1%,-1,-3%,-0.6,-1.3%,-8
CC1CCCCN1C(=O)COc1ccc(F)cc1 (stereo not given),-26%,14%,4,6%,3.7,2.1%,-6
Cc1cc(S(=O)(=O)Nc2cccc(C(=O)O)c2)c(C)c(S(=O)(=O)c2ccc(Cl)cc2)c1,-13%,7%,1,13%,-0.4,.,1
CC(C)C[C@H](NC(=O)N1CCn2c1nc1ccccc12)C(=O)N[C@@H](C(=O)O)c1ccccc1,.,3%,.,10%,3.3,1.2%,-19
O=C(CN(Cc1ccc(Cl)cc1)S(=O)(=O)c1ccccc1)NCC1CCCO1 (stereo not given),-34%,0%,-4,3%,1.3,1.6%,-11
Cc1c(C(c2ccccc2O)c2c(C)n(C)n(-c3ccccc3)c2=O)c(=O)n(-c2ccccc2)n1C,-64%[inhibitor],2%,-8,0%,3.0,1.9%,6
C/C=C\C(=O)Nc1cccc(C2=NOC3(C2)C[C@H](C(N)=O)N(C(=O)/C=C/CC)C3)c1 (stereo not given in full),.,4%,-14,3%,3.8,1.1%,-13
CCCCc1nc2sc3c(=O)n(N)cnc3c2c2c1CCC2,-29%,1%,10,16%,-3.4,-8.0%,9
CCCCCN1CN(S(=O)(=O)c2cccs2)c2nc3ccccc3nc21,-30%[15.4 µM],3%,20,4%,3.7,.,-6
Cc1ccnn1CCC(=O)O,?,15%,.,12%,3.0,1.1%,-1
CC(COc1ccccc1)N(CCCl)Cc1ccccc1 (stereo not given),.,1%,15,5%&-7%&15%&-7%&-20%,-2.5&3.2&-1.5&-2.2,0.7%,-7
O=C(CC(=O)N/N=C/c1cccs1)NCc1ccccc1,-13%,-3%,-3,4%,-2.8,.,4
CC(C)CNC(=O)COC(=O)c1cncc(Br)c1,-2%,6%,68,32%[activator],0.4,1.0%,-3
O=[N+]([O-])c1ccc(CN2CCN(c3ccc4ccccc4n3)CC2)cc1,?,2%,16,-14%,-3.7,.,0
CCc1nnc(NC(=O)CSc2nnc(COc3ccccc3)n2-c2ccc(C)cc2)s1,17%,-8%,14,7%,-0.1,-1.4%,1
O=C(NN=C1CCCCCC1)c1cc(-c2ccccc2)nc2ccccc12,4%,14%,0,20%,0.7,?,9
NNC(=O)/C(=C/c1cccs1)NC(=O)c1ccccc1Cl,-4%[15.4 µM],-3%,17,6%,1.6,-1.0%,0
Cc1cccc(NC(=O)CNC(=O)c2cccc(S(=O)(=O)NCc3cccs3)c2)c1C,-37%,-5%,5,.,.,1.4%,-8
Cc1nc(N2CCN(C(=O)CCC(=O)O)CC2)c2c(C)c(C)sc2n1,-21%,1%,-6,12%,-4.8,0.4%,-3
O=C(Nc1ccnc(-c2cccnc2)n1)c1cccc(Cl)c1Cl,-34%[inhibitor],4%,30,5%,1.4,-2.7%,2
CCN(CC)N=Nc1ccc(S(=O)(=O)N2CCSC2C(=O)O)cc1 (stereo not given),10%[15.4 µM],3%,11,22%,3.0,.,-3
CCn1nccc1C(=O)Nc1cc(Cl)cc(Cl)c1,-55%[inhibitor],14%,6,-1%,11,-4.4%,23
CC(=O)C[C@H](O)CC(=O)[C@H]1OC(=O)[C@H](C)C/C=C\Cc2ccccc21,.,6%,-8,.,.,-4.2%,-10
COC(=O)c1ccc(CO/N=C/c2ccc(OC)cc2OC)cc1,6%,-2%,-6,-26%,1.2,-0.7%,3
CCCOc1cccc(C(=O)Nc2ccc(CN3CCOCC3)cc2)c1,-55%[inhibitor],-4%,-12,15%,-0.2,0.6%,-6
O=C(c1cccc(NS(=O)(=O)c2ccc(F)cc2)c1)N1CCN(c2ccccc2)CC1,-27%[15.4 µM],-24%,-21,.,.,.,13
O=C1CC(c2ccc(F)cc2)CC2=C1C(c1ccc([N+](=O)[O-])o1)Nc1ccccc1N2 (stereo not given),13%,?,-1,8%,7.4,.,.
Cc1cccn2c(=O)c3cc(C#N)c(=NC(=O)c4cccnc4)n(CC4CCCO4)c3nc12 (stereo not given),27%,0%,8,.,.,?,.
Cc1cc(C)cc(OC(C)C(=O)Nc2ccc(S(=O)(=O)Nc3cc(C)nc(C)n3)cc2)c1 (stereo not given),26%,-17%,9,6%,.,-0.7%,-2
O=[N+]([O-])c1ccc(Nc2cccc(F)c2)nc1,12%,-10%,-10,16%,4.2,-2.3%,-5
COc1ccc(N(CC(=O)N2CCN(C)CC2)S(C)(=O)=O)cc1OC,5%,1%,12,23%,3.2,-1.7%,17
O=C(/C=C\Nc1ccc(Br)cc1)c1cccnc1,-20%,4%,0,20%,2.6,1.1%,-24
COC(=O)c1cc(NS(=O)(=O)c2ccc(Cl)c(N3C(=O)c4ccc(C(=O)O)cc4C3=O)c2)cc(C(=O)OC)c1,1%[15.4 µM],-3%,-15,4%,0.6,.,4
O=C(NCc1ccco1)c1ccc(Cn2c(=S)[nH]c3ccccc3c2=O)cc1,13%[15.4 µM],-2%,2,-30%,1.5,.,-5
CCN(CC)S(=O)(=O)c1ccc(OC)c(NC(=O)C2CC(=O)N(c3ccc4c(c3)OCCO4)C2)c1 (stereo not given),-20%,-2%,24,10%,.,-1.7%,1
CCC(Oc1ccccc1)C(=O)Nc1nnc(S(=O)(=O)N2CCCC2)s1 (stereo not given),25%,-9%,9&6,1%,-1.6,-5.7%&-2.1%,?
C/C(=N\NC(=O)c1ccc(Cl)cc1)c1cccnc1,-2%,-7%,1,-2%,8.2,.,-3
COc1cc(OC)c2c(C)cc(=O)oc2c1C(CCN1CCOCC1)c1ccc2c(c1)OCO2 (stereo not given),.,8%,9,-6%,0.3,-13%,-17
CC(=O)c1ccc(NC(=S)NN2C(C)CCCC2C)cc1 (stereo not given),-6%[15.4 µM],-5%,9,12%,-1.4,.,1
CCOc1ccccc1CNS(=O)(=O)c1ccc(-c2cnc(C3CC3)o2)cc1,6%,19%,-12&19,10%,.,4.4%&4.0%,17
CC1CN(c2ccc(NC(=S)NNCCC#N)cc2)CC(C)O1 (stereo not given),-2%[15.4 µM],6%,3,?,0.0,.,-24
O=C1c2ccccc2C(O)(Cc2ccccc2)N1C1CCCCC1 (stereo not given),0%,-3%,-2,-5%,0.4,-1.6%,-15
CCN(CC)c1nc(N)n(CCSC(=S)N(C)C)c(=O)n1,-28%,-3%,22,-9%,8.8,0.6%,3
CC(=O)N1c2ccc(S(=O)(=O)N3CCCCC3)cc2CC1C (stereo not given),-24%,4%,-3,11%,.,-2.2%,-8
CCn1c(=O)cc(OCC(=O)NC2CC2)c2ccccc21,35%,2%,-13,-4%,.,-5.0%,2
Cc1ccc(S(=O)(=O)NCCC(=O)NC2CCN(Cc3ccccc3)CC2)cc1,-13%,5%,11,.,.,-1.3%,3
CCOc1ccc(OCCC(=O)N2CCN(S(=O)(=O)c3cccc(F)c3)CC2)cc1,-40%[inhibitor],-24%,-10,.,.,1.5%,16
CN(C)c1ccc(C(O)c2cc3ccccc3s2)cc1 (stereo not given),?,-3%,6,.,.,.,.
COc1ccc(OCC(O)CNC(=O)/C=C/c2cccc([N+](=O)[O-])c2)cc1 (stereo not given),-6%,-12%,-3,14%,0.8,1.6%,-5
O=C1CCCN1CCC(=O)N1CCCC(Nc2ccc(F)cc2)C1 (stereo not given),-40%[inhibitor],-1%,-4,8%,.,28µM*,5
COc1ccc(-n2ncc3c2CC(C)(C)CC3NC(=O)CSc2ccccn2)cc1 (stereo not given),-16%,?,13,8%,-8.8,-1.7%,-9
CC(=O)NS(=O)(=O)c1ccc(NC(=O)C(C)NS(=O)(=O)/C=C/c2ccccc2)cc1 (stereo not given),16%,-8%,-3,.,.,-1.5%,.
Cc1ccc(S(=O)(=O)N2CCN(C(=O)CSc3ncc(C(F)(F)F)cc3Cl)CC2)cc1,-11%,-19%,-7,3%,0.7,1.1%,21

# The list goes on.
SMILES,gsp ag,gsp antag,TRPML1 blocker,Sfp inh,Menin-MLL FL inh,ClpP mod,TRPV1 potentiator
Cc1cc(=O)oc2cc(OCC(=O)NC(Cc3c[nH]c4ccc(O)cc34)C(=O)O)c(Cl)cc12 (stereo not given),.,-4%,.,11%,-2.9,?,-4
COc1cc(OC)c2cc(C(=O)N[C@H](C(=O)N3CCC[C@H]3C(=O)O)C(C)C)n(C)c2c1,.,2%,.,4%,-6.9,5.0%,0
CCOc1ccc(NC(=O)Nc2cc(C(C)C)ccc2C)cc1,.,.,.,14%,-1.7,.,-16
CC(=O)c1nn(-c2ccccc2)cc1C(=O)c1cccc(Br)c1,28%,-1%,-18,19%,0.7,-3.0%,3

# Compound profiles, from the list above. Order of screens: gsp ag	gsp antag	TRPML1 blocker	Sfp inh	Menin-MLL FL inh	ClpP mod	TRPV1 potentiator
# `CCOc1ccc(NC(=O)Nc2cc(C(C)C)ccc2C)cc1` reads .	.	.	14%	-1.7	.	-16
# `Cc1cc(=O)oc2cc(OCC(=O)NC(Cc3c[nH]c4ccc(O)cc34)C(=O)O)c(Cl)cc12` (stereo not given) reads .	-4%	.	11%	-2.9	?	-4

# Source: PubChem (National Center for Advancing Translational Sciences (NCATS))
